UCH37 DUB inh: inhibitors of human UCH37 deubiquitinase, primary screen, biochemical, Ub-AMC cleavage, fluorescence; Ubiquitin carboxyl-terminal hydrolase isozyme L5 (Homo sapiens), Q9Y5K5; purified proteasome/UCH37; inhibition, % (no concentration beside the values); 0.33% of 330,000 active; AID 588478, 2011;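 active means mean of two replicates above 20%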;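 further: 0% = compound-free wells with enzyme and 100% = wells lacking proteasome; stock transfer was 100 nL into about 20 µL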
Target sequence (Q9Y5K5 whole entry, looked up): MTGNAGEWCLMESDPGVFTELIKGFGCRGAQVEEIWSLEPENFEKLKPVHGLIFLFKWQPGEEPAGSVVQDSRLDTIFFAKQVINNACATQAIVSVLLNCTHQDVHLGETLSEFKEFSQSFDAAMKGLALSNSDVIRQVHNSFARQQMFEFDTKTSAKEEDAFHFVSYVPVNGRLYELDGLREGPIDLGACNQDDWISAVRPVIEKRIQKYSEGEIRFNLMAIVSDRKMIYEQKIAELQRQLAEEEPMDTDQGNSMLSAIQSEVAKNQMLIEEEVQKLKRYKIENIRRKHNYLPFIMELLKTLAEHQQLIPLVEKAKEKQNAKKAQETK
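system = Proteasome-associated human UCH37 deubiquitinase | amount = 0.15 nM proteasome as dispensed | medium = pH 7.4 Tris-HCl (50 mM) with ovalbumin, ATP-MgCl2, DTT | incubation = 30 min preincubation with enzyme, 25 min cleavage at room temperature | detection = AMC fluorescence 355/460 nm | read-out basis = percent inhibition | controls = no-proteasome and no-compound wells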
Beta2AR agonist: beta2AR agonists driving receptor internalization, primary screen, cell-based, FAP fluorogen, flow cytometry; Am2.2-beta2AR cells; reference of the scale not given here; response, % (no concentration beside the values); 0.43% of 340,000 active; AID 504454, 2011; Beta-2 adrenergic receptor (Homo sapiens), P07550;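 active means response above a set limit, near 3 SD of response in nonfluorescent compounds, cut at about 42% in these data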;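 further: stock transfer was 100 nL into about 11 µL; a reference agonist was the positive control; negative values mostly stem from fluorescent compounds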
Target sequence (P07550 whole entry, looked up): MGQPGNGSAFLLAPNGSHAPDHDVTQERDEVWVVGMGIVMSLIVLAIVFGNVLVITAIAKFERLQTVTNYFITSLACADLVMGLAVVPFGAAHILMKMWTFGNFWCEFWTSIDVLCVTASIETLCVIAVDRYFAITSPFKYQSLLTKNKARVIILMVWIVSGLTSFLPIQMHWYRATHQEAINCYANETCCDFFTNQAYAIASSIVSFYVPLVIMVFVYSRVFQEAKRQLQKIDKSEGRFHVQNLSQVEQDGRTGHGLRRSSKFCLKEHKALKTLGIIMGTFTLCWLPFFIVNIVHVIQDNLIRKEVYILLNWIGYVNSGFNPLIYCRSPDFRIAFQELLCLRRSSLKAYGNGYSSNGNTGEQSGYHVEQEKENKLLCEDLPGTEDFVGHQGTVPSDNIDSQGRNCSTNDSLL
An asterisk follows results filed as active. An excerpt; count on the stated rates, not on these rows.

SMILES	UCH37 DUB inh	Beta2AR agonist
COc1ccc2[nH]c3c(c2c1)CCN1C(=O)C(CC(=O)NCCC2=CCCCC2)C[C@H](C(=O)N2CCCCC2)[C@@]31C (stereo not given in full)	2.3	-6
O=C(NC1(C(=O)O)CCCC1)C(Cl)Cl	2.1	9
Cc1ccc(S(=O)(=O)N2C[C@@H]3[C@H]4CC[C@H](C4)[C@@H]3[C@@H](C)[C@H]2c2ccn(Cc3ccccc3)c2)cc1	4.6	6
O=C(Cc1ccc(S(=O)(=O)N2CCOCC2)s1)N1CCN(S(=O)(=O)c2ccccc2F)CC1	0.3	-3
CCOC(=O)CCN(C(=O)Nc1ccccc1)C1CCCCC1	3.2	2
O=C(CCSCCC(=O)NN=Cc1ccccc1O)NN=Cc1ccccc1O	-1.0	-8
CN(C)C(=O)CCc1ccc2c3c([nH]c2c1)[C@]1(C)[C@@H](C(=O)N2CCCCC2)C[C@H](CC(=O)NCCc2ccccn2)C(=O)N1CC3	6.8	-6
CCN(CC)CCCN1C(=O)C(=O)/C(=C(/O)c2c(C)nc3ccccn23)C1c1ccc(C)o1 (stereo not given)	1.8	-1
Cc1cccc(NC(=O)CN(CC2CCCO2)C(=O)c2cc3ccccc3o2)c1C (stereo not given)	2.1	-5
Nc1ncnc2c1ncn2[C@@H]1O[C@H](CNC(=O)[C@H](N)Cc2cscn2)[C@@H](O)[C@H]1O	0.8	9
N#Cc1ccc(CN2CCN(C(=O)CNC(=O)Cc3ccccc3)CC2)cc1	2.6	0
Cc1ccc(C=NNc2ccc([N+](=O)[O-])cn2)cc1	-0.5	1
CN(C)c1ccc(C=NNC(=S)Nc2ccc(F)cc2)cc1	-47	-1
Cc1nc2cc(C)c(C)cc2o1	2.7	2
CCOc1cc(NC(=S)Nc2cccc(C)c2)c(OCC)cc1NC(=O)CC(C)C	2.9	-1
Cc1cc(C(=O)N2CCc3ccccc3C2)c(C)o1	2.3	-11
O=c1cc2c(c(-c3ccccc3)n1Cc1ccccc1)[C@H](CCO)NC2	-8.7	3
O=C1CC(c2ccccc2)(c2ccccc2)c2ccccc21	-0.9	59*
O=C(O)c1cc2ccccc2cn1	0.7	0
CC(Sc1nnc(Cc2cccs2)n1C)C(=O)Nc1ccc(C(N)=O)cc1 (stereo not given)	0.3	3
COc1cccc(NC(=O)c2ccccc2OCc2c(C)noc2C)c1	2.9	0
CC(C)CN1CC(C)C(=O)NC1=S (stereo not given)	-2.6	-7
CCOc1ccc(OCC(=O)OCC(=O)N2CCN(S(=O)(=O)c3ccc(C)cc3C)CC2)cc1	0.7	-6
O=C(C1CCC1)N1CCN(S(=O)(=O)c2cc(F)ccc2F)CC1	0.7	-7
COc1ccc(CCC(=O)Nc2cccc(S(=O)(=O)N3CCCC3)c2)cc1OC	-0.6	1
CC(Sc1nnc2n1CCCCC2)C(=O)Nc1cccc(S(=O)(=O)N2CCOCC2)c1 (stereo not given)	1.0	-13
O=C(COC(=O)c1cncc(Br)c1)NCC12CC3CC(CC(C3)C1)C2	1.4	-1
CN(Cc1ccccc1)C(=O)COC(=O)c1ccc(-n2cnnn2)cc1	-0.4	3
CC(C)=CCCC(C)CCO (stereo not given)	12	-1
CCOC(=O)C1C(=O)C=C(c2ccc(C)cc2)CC1c1ccc([N+](=O)[O-])cc1 (stereo not given)	0.5	7
CCN1CCN(Cc2ccc(NC(=O)c3ccc(C)c(NC(=O)c4cncc(-c5cccs5)c4)c3)cc2C(F)(F)F)CC1	2.3	13
COCCCNC(=O)C[C@H]1C[C@H](C(=O)N2CCOCC2)[C@@]2(CCC3CCCC3)c3[nH]c4cc(-c5ccco5)ccc4c3CCN2C1=O	-12	5
Cc1ccc(C(C)C)c(OCC(=O)NNC(=O)C2CSC3(C)CCC(=O)N23)c1 (stereo not given)	3.0	1
CC(c1ccccc1)N1CC(C(=O)N2CCN(Cc3ccc(C#N)cc3)CC2)CC1=O (stereo not given)	1.6	8
COc1cccc(C(CCc2cc(OC)c(OC)c(OC)c2)NC(C)=O)c1 (stereo not given)	2.6	-5
COc1ccc(CCNC(=O)COC(=O)Cn2cnc3c2c(=O)n(C)c(=O)n3C)cc1	1.6	-2
O=[N+]([O-])c1ccccc1N(S(=O)(=O)c1ccccc1)S(=O)(=O)c1ccccc1	0.2	5
Cc1ccc(OC(=O)c2ccccc2)cc1C	-2.1	-2
C[C@]12c3[nH]c4cc(-c5ccco5)ccc4c3CCN1C(=O)[C@@H](CC(=O)NCC13CC4CC(CC(C4)C1)C3)C[C@@H]2C(=O)N1CCCCC1	-11	1
O=C(O)c1ccc(Cn2cnc3c(=O)[nH]cnc32)cc1	-1.3	0

Record cards (already shown). Order of values: UCH37 DUB inh | Beta2AR agonist
Cc1nc2cc(C)c(C)cc2o1 in the list: 2.7 | 2
CCN1CCN(Cc2ccc(NC(=O)c3ccc(C)c(NC(=O)c4cncc(-c5cccs5)c4)c3)cc2C(F)(F)F)CC1 in the list: 2.3 | 13
Nc1ncnc2c1ncn2[C@@H]1O[C@H](CNC(=O)[C@H](N)Cc2cscn2)[C@@H](O)[C@H]1O in the list: 0.8 | 9

The listing continues.
SMILES	UCH37 DUB inh	Beta2AR agonist
CN(c1ccccc1)c1ncnc2c1ncn2C	0.4	-3
COn1c(C)c(C)c2c3nonc3ccc21	-40	6
COc1cc(NC(=O)CNc2cccc(S(=O)(=O)N3CCOCC3)c2)cc(OC)c1	0.2	3
Cc1cc(C)c(C(=O)CC(=O)c2cccnc2)c(C)c1	4.5	3
CC1CC(C)CN(C(=O)COC(=O)/C=C/c2cccc([N+](=O)[O-])c2)C1 (stereo not given)	0.5	0
CCN(CC)C(=O)[C@H]1C[C@H](CC(=O)NCCc2ccccn2)C(=O)N2CCc3c([nH]c4ccc(Cl)cc34)[C@]12C	1.8	-3
CC1=CC(C)(C)NC(=S)N1c1ccc([N+](=O)[O-])cc1	2.4	-9
CN(Cc1ccc([N+](=O)[O-])cc1)c1ccccc1	1.2	8
CC1(c2ccccc2)NC(=O)N(CC(=O)NCCN2C(=O)S/C(=C\c3cccnc3)C2=O)C1=O (stereo not given)	5.0	6
Clc1ccc2c(NCCNC3CCCCC3)ccnc2c1	3.0	16
CN1CCN(Cc2nc3ccccc3c(=O)n2Cc2nc(-c3cccc([N+](=O)[O-])c3)cs2)CC1	8.1	2
Cc1ccc(NC(=O)CN(C)C(=O)c2ccccn2)cc1	2.0	2
NC(=S)NN=Cc1ccc(-c2ccc(S(=O)(=O)Nc3ncccn3)cc2)o1	-61	-3
COc1ccccc1Nc1ccc2c(O)cc(S(=O)(=O)O)cc2c1	-9.6	6
CN(c1ccc(OCC(=O)Nc2ccc(S(N)(=O)=O)cc2)cc1)S(=O)(=O)c1ccc(F)cc1	0.8	-4
CC(C)(C)OC(=O)C1=C(CO)CS[C@@H]2[C@H](NC(=O)Cc3ccccc3)C(=O)N12	0.9	0
O=C1C2CC=CCC2C(=O)N1c1nccs1 (stereo not given)	1.7	19
NCC(=O)NCC(=O)NC1(C(=O)O)CCCC1	3.6	-4
Cc1cc(C(=O)Nc2ccncc2)c(C)o1	2.0	-6
O=C1CSC(=S)N1Cc1cccs1	4.3	9
O=C(COc1ccccc1Cl)N1CCNC1=O	4.0	-8
CN1CCN(S(=O)(=O)c2ccc(N3CCN(c4ccccc4O)CC3)c([N+](=O)[O-])c2)CC1	4.3	0
[O-]C(=C(C(=S)Nc1cccc2ccccc12)[n+]1ccccc1)c1ccc2c(c1)OCCO2	6.5	5
COc1ccc(NC(=O)/C(N=Nc2cccc(S(=O)(=O)Nc3ccc(SC(F)F)cc3)c2)=C(\C)O)cc1	11	3
COc1ccc(-c2cccc(-c3cc(=O)oc4cc(OC)c(OC)c(OC)c34)c2)cc1	-9.9	0
Cc1ccc(C(=O)CCC(=O)OCC(=O)Nc2nnc(-c3ccccc3)o2)cc1	-1.6	4
CC1(C2CC2)NC(=O)N(CC(=O)N2CCN(c3ccc(F)cc3)CC2)C1=O (stereo not given)	3.9	2
Cc1noc(C)c1NC(=O)Nc1ccc2c(c1)C(=O)N([C@H](C)CO)C[C@H](C)[C@@H](CN(C)C(=O)NC(C)C)O2	4.2	-1
O=C(CN1C(=O)NC2(CCCCCC2)C1=O)NCCc1ccc(F)cc1	-0.7	2
COc1ccc(NC(=O)N(C)C[C@H]2Oc3ccc(NC(=O)Nc4ccc5c(c4)OCO5)cc3C(=O)N([C@H](C)CO)C[C@@H]2C)cc1	1.2	7
CC(=O)c1c(C)[nH]c(C(=O)OCC(=O)N(CC(C)C)C2CCS(=O)(=O)C2)c1C (stereo not given)	0.8	-3
COc1cc(O)cc(/C=C/c2ccccc2)c1	-18	36
COc1cc(C(=O)Oc2ccccc2OC(=O)c2cc(OC)c(OC)c(OC)c2)cc(OC)c1OC	-2.7	-5
COc1ccc(C(=Cc2ccccc2)C(=O)O)cc1	2.2	10
Cc1ccc(S(=O)(=O)N2CCN(C(=O)c3cc(S(=O)(=O)N4CCOCC4)c(Cl)cc3Cl)CC2)cc1	1.2	-1
CC(=O)Nc1cccc2ccc(O)cc12	2.6	-1
CCN(C[C@H]1N[C@@](CC)(C(=O)OC)[C@H]2C(=O)N(Cc3ccccc3)C(=O)[C@@H]12)C(=O)c1ccc(C)cc1	4.5	6
CC1(C)COC(c2ccc3c(c2)OCO3)OC1	1.2	-4
Cc1ccc(OCC(=O)Nc2ccc(-n3cnnn3)cc2)c(C)c1	2.2	7
O=C(CCCCn1ccc(=O)[nH]c1=O)Nc1ccc(C(=O)O)c(O)c1	-3.7	-8
CCOc1ccc(NC(=O)CN(C)C(=O)c2c(C)nn(Cc3ccccc3Cl)c2C)cc1OCC	1.6	-3
O=C1C(Cl)=C(NCCCN2CCOCC2)C(=O)c2ccccc21	17	9
CN(c1ccc(F)cc1)S(=O)(=O)c1ccc(Cl)c(C(=O)NCC(c2ccco2)N2CCCCC2)c1 (stereo not given)	1.7	0
Cc1ccc(S(=O)(=O)N2CCN(C(=O)COC(=O)CCOc3ccccc3C)CC2)c(C)c1	-1.2	3
Cc1noc(C)c1NC(=O)N(C)C[C@H]1Oc2ccc(NC(=O)c3ccncc3)cc2C(=O)N([C@H](C)CO)C[C@@H]1C	1.0	-6
CC(=O)N1c2cc3ccccc3cc2N(C(C)=O)c2cc3ccccc3cc21	0.6	9
C=C(C)C(=O)Nc1nnc(-c2ccccc2C)s1	3.3	8
CCN(CC(=O)NCc1ccc(F)cc1)C(=O)c1cccc(S(=O)(=O)N(C)c2ccc(OC)cc2)c1	0.1	-1
COC1OC2COC(c3ccccc3)OC2C(OC(C)=O)C1OC(C)=O (stereo not given)	-0.4	-3
O=c1oc2ccccc2c(O)c1Sc1c(O)c2ccccc2oc1=O	13	-2
CCOC(=O)C1C(=O)C(=O)N(C(C)C)C1C(=O)OCC (stereo not given)	3.3	-6
COc1cc(N)c2ncsc2c1	0.3	6
Cc1ccc(NS(=O)(=O)c2cc(C(=O)N3CCN(CCO)CC3)ccc2C)cc1	0.7	-3
CC1=CCC[C@H]2[C@H](C1)C(=O)C[C@@H](C)[C@]2(C)CC/C(=C/CO)CO	1.2	2
CC(NC(=O)CN1C(=O)NC(C)(C2CC2)C1=O)c1ccc(F)cc1 (stereo not given)	1.4	0
COc1cc(OC)c2c(c1)OC(=O)CC2c1cc(OC)c(OC)c(OC)c1 (stereo not given)	3.8	-4
CCCCn1c(N)c(N(CC(C)C)C(=O)COc2cc(C)ccc2Cl)c(=O)[nH]c1=O	-0.4	-7
S=C(NN=Cc1ccc2c(c1)OCO2)NN=Cc1ccc2c(c1)OCO2	-4.8	9
Cc1c(C(=O)OCC(O)=C(C#N)c2nc3ccccc3[nH]2)oc2ccc(Br)cc12	-1.2	18
CCOC(=O)C1=CN(Cc2cccc(I)c2)S(=O)(=O)N(C)C1C (stereo not given)	1.1	-3

Four records picked at random from the list so far:
SMILES	UCH37 DUB inh	Beta2AR agonist
CC1=CCC[C@H]2[C@H](C1)C(=O)C[C@@H](C)[C@]2(C)CC/C(=C/CO)CO	1.2	2
CCOc1ccc(NC(=O)CN(C)C(=O)c2c(C)nn(Cc3ccccc3Cl)c2C)cc1OCC	1.6	-3
CCCCn1c(N)c(N(CC(C)C)C(=O)COc2cc(C)ccc2Cl)c(=O)[nH]c1=O	-0.4	-7
COC1OC2COC(c3ccccc3)OC2C(OC(C)=O)C1OC(C)=O (stereo not given)	-0.4	-3

(list continues)
SMILES	UCH37 DUB inh	Beta2AR agonist
O=C(O)CC(C(=O)O)C(c1ccccc1)c1ccccc1 (stereo not given)	1.1	-4
CC1(C)CC(NC(=O)c2ccccc2NS(=O)(=O)c2ccc(Br)cc2)CC(C)(C)N1	2.7	-10
O=C(CNC(=O)c1cc(S(=O)(=O)N2CCOCC2)ccc1N1CCCC1)Nc1ccc(F)c(F)c1	2.8	0
CCN(CC(=O)Nc1ccccc1C(F)(F)F)C(=O)CN1C(=O)NC(C)(c2ccc3ccccc3c2)C1=O (stereo not given)	1.4	-3

Compounds listed so far that have a CF3 group, in the order listed:
SMILES	UCH37 DUB inh	Beta2AR agonist
CCN1CCN(Cc2ccc(NC(=O)c3ccc(C)c(NC(=O)c4cncc(-c5cccs5)c4)c3)cc2C(F)(F)F)CC1	2.3	13
CCN(CC(=O)Nc1ccccc1C(F)(F)F)C(=O)CN1C(=O)NC(C)(c2ccc3ccccc3c2)C1=O (stereo not given)	1.4	-3

Screens (PubChem)
